AID504770: growth inhibition of E. coli YBA685, primary screen, V. cholerae RctB inhibitors; 0.27% of 130,000 active; z-score (concentration not given with the values); E. coli YBA685 rctB-dependent plasmid, OD600 growth, 3 h; hits give low values;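 active means z-score under -2 on both plates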;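 further: wells of about 30 µL received 100 nL stock; score is relative to mean and SD of the test wells; the first replicate is given; strong numbers were not always called active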
Ba CapD inh: Bacillus anthracis CapD inhibitors, primary screen, biochemical, fluorescence intensity. CapD gamma-glutamyltranspeptidase (Bacillus anthracis Ames Ancestor). purified CapD enzyme, fluorescence intensity read-out; hits give low values; some hits fall short of the stated cut. AID 492967, 2010. z-score (concentration not given with the values). 0.23% of 140,000 active;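 active means z-score under -4 in either of two replicates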;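 further: stock transfer was 100 nL into about 40 µL; score is relative to mean and spread of the plate; one replicate is shown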
* = called active by the depositor; i = inactive; / = no result given. This is a random part of the collection; about 0.37% have a hit in one of these screens.

SMILES	AID504770	Ba CapD inh
CCSc1nnc2n(Cc3ccccc3OC)c(=O)c3ccccc3n12	-0.6	/
CCn1c(C(=O)NCc2ccccc2)cc2sccc21	-0.9	-0.96
CS(=O)(=O)NC1c2cccc3cccc(c23)C1N1CCOCC1 (configuration not stated)	0.9	/
COc1ccc(C(=O)COC(=O)c2ccc3c(=O)n4c(nc3c2)CCCCC4)c(OC)c1	-1.8	/
O=C(NC(=S)Nc1ccccc1)c1ccc2nonc2c1	1.9	0.5
Cc1ccc(-c2noc(CCC(=O)NCCN3CCN(c4cccc(Cl)c4)CC3)n2)cc1	0.2	0.03
Cc1ccc(-c2nc(C)sc2CC(=O)NC2=NCCS2)cc1	-1	/
COC(=O)CNC(c1ccccc1)c1cc(Br)ccc1N (configuration not stated)	-0.95	-0.57
Cc1ccc2c(COC(=O)CN3C(=O)C4CC=CCC4C3=O)cc(=O)oc2c1 (configuration not stated)	-0.4	/
COc1ccc2cc(-c3nc4ccccc4n3C)c(=O)oc2c1	-0.25	i
O=C1CCCN1CCCN=Cc1c(-c2ccccc2)[nH]n(-c2nc3ccccc3s2)c1=O	/	-0.79
COc1cccc(-n2c(O)c(C3=c4cc(Br)ccc4=NC3=O)sc2=S)c1	/	-0.08
COCC(=O)Nc1c(C)cc(C)cc1C	0.3	0.46
CCOc1ccc(NC(=O)Cn2cccc2)cc1	-0.2	0.095
CCCNC(=S)N1CCC(NC(=O)Nc2ccc(C)cc2)CC1	-0.6	/
COC(=O)CON1C(=O)CN(C(=O)c2ccccc2)C1c1ccc(Cl)cc1Cl (configuration not stated)	/	-0.23
CCOC(=O)C(Cc1ccccc1)C(=O)Nc1nccs1 (configuration not stated)	1.8	-0.43
COC(=O)C1=C(C)N(C(C)C)C(=O)C1(NC(=O)C1CCCCC1)C(F)(F)F (configuration not stated)	-0.85	0.42
CNC(=O)C1CC(=O)N(c2ccc(F)c(Cl)c2)C1 (configuration not stated)	-0.75	-1.2
NCCCSc1ccccc1	-0.65	/

Molecules above containing fluorine (two):
SMILES	AID504770	Ba CapD inh
COC(=O)C1=C(C)N(C(C)C)C(=O)C1(NC(=O)C1CCCCC1)C(F)(F)F (configuration not stated)	-0.85	0.42
CNC(=O)C1CC(=O)N(c2ccc(F)c(Cl)c2)C1 (configuration not stated)	-0.75	-1.2

Returning to the listing, repeating the three entries before the break.
SMILES	AID504770	Ba CapD inh
COC(=O)C1=C(C)N(C(C)C)C(=O)C1(NC(=O)C1CCCCC1)C(F)(F)F (configuration not stated)	-0.85	0.42
CNC(=O)C1CC(=O)N(c2ccc(F)c(Cl)c2)C1 (configuration not stated)	-0.75	-1.2
NCCCSc1ccccc1	-0.65	/
CCc1ccc2nc(NC(=O)CCc3c(C)noc3C)sc2c1	1.6	/
COc1ccc(N2CCN(S(=O)(=O)c3ccc(Cl)c(Cl)c3)CC2C)cc1 (configuration not stated)	/	-0.54
N#CC1(c2nc3ccccc3[nH]2)Cc2ccccc2N2CCCCC21 (configuration not stated)	-0.25	/
COc1ccc(Cn2c(=O)[nH]c3cc(C(=O)N4CCN(c5ccc(OC)cc5)CC4)ccc3c2=O)cc1	-0.25	0.005
CCc1c(C)sc(NC(=S)NCc2ccco2)c1C(=O)OC	0.65	-0.62
COC(=O)c1sccc1N/N=C1\C(=O)c2ccccc2N(C)S1(=O)=O	0.6	-0.26
O=C(COc1ccccc1)Nc1nc2cc3c(cc2s1)OCO3	1.1	/
CC1(c2ccccc2)COC2(OC1)C(=O)N(CN1CCN(Cc3ccccc3)CC1)c1ccccc12 (configuration not stated)	/	1.4
CC1CC(C)CN(C(=O)c2cc3sc(Cl)cc3n2C)C1 (configuration not stated)	-0.5	-0.065
Cc1ccc(C=Nc2ccccc2Sc2c(C)n[nH]c2C)cc1	-0.7	-0.45
CCc1ccc(S(=O)(=O)N(C(=O)c2ccc(C)cc2)c2ccc3oc(C)c(C(C)=O)c3c2)cc1	/	-0.34
CC(NC(=O)Nc1ccccn1)N1C(=O)C2C3C=CC(C3)C2C1=O (configuration not stated)	0.35	0.47
CCC1CCCCN1C(=O)CSC1CCCCC1 (configuration not stated)	0.75	0.26
CCOC(=O)c1cnn(C)c1NC(=O)c1ccc(Cl)cc1Cl	/	-0.12
CC(=O)n1c2ccccc2c2c(-c3ccccc3)c(N3CCOCC3)sc21	-0.35	0.62
COc1ccc(S(=O)(=O)N2CCC(N(C3CC3)S(=O)(=O)c3ccccc3)CC2)cc1	/	-0.4
C=CCn1c2ccccc2c2nnc(SCCC(=O)O)nc21	-0.4	-2.6
Cc1noc(C)c1-c1ccc(Cl)c(C(=O)O)c1	-0.3	/
Cc1cc(C)c2[nH]c(=O)c(NC(N)=S)nc2c1	0.25	-0.77
N#CC(=C1SCCCCS1)S(=O)(=O)c1ccccc1	-0.3	-0.29

Some of these compounds in order of number of heavy atoms, smallest number first:
SMILES	AID504770	Ba CapD inh
Cc1noc(C)c1-c1ccc(Cl)c(C(=O)O)c1	-0.3	/
CCOC(=O)c1cnn(C)c1NC(=O)c1ccc(Cl)cc1Cl	/	-0.12
CCc1ccc2nc(NC(=O)CCc3c(C)noc3C)sc2c1	1.6	/
CC(NC(=O)Nc1ccccn1)N1C(=O)C2C3C=CC(C3)C2C1=O (configuration not stated)	0.35	0.47
COc1ccc(N2CCN(S(=O)(=O)c3ccc(Cl)c(Cl)c3)CC2C)cc1 (configuration not stated)	/	-0.54

(more compounds)
SMILES	AID504770	Ba CapD inh
O/N=C(/c1ccccc1)c1ccccc1N=Cc1cc(Cl)cc(Cl)c1O	/	0.23
CCOc1ccc(C(C)=O)cc1N1C(=O)C2C3C=CC(O3)C2C1=O (configuration not stated)	/	0.075
CC(C)N(C(=O)CSc1nc2ccc(S(N)(=O)=O)cc2[nH]1)c1ccccc1	-0.3	/
CC(C)C(=O)NCCc1c[nH]c2ccccc12	-0.5	-0.06
Cc1cc(NC(=O)Cn2c(=O)n(CC3CCC(C(=O)NC4CCCC4)CC3)c(=O)c3ccccc32)n[nH]1 (configuration not stated)	-0.9	/
CCCCNC(=O)C1=C(C)C(=O)OC12CCCCCC2	0.05	0.33
CCCC(=O)N(c1ccc2oc(C)c(C(=O)OCC)c2c1)S(=O)(=O)c1ccc(C)cc1	/	-0.92
Cc1ccc(C2=NN3C(C2)c2ccccc2OC3c2ccc(OCc3ccccc3)cc2)cc1 (configuration not stated)	/	-0.53
Cc1cc(C(=O)Sc2ccc(Cl)cc2)nn1C(C)(C)C	0.25	0.28
Cc1cc(C)nc(NS(=O)(=O)c2ccc(NC(=O)CSc3nc4c(cc3C#N)CCCCC4)cc2)n1	/	-0.95
CCOc1ccc(Br)cc1C1C(C#N)=C(N)Oc2cc(C)oc(=O)c21 (configuration not stated)	/	-0.23
Cc1ccc(C)c(C(=O)NCC(C)C)c1	-0.35	-0.07
CCC(CC)C(=O)c1c[nH]c(C(=O)NCc2cccc(C(F)(F)F)c2)c1	/	0.28
CCOc1ccc2nc(NC(=O)CN3CCN(S(=O)(=O)c4ccc(F)cc4)CC3)sc2c1	-1.7	/
Cc1nc(SCc2ccc(C(F)(F)F)cc2)c2c(=O)n(C)c(=O)n(C)c2n1	0.4	-3.1
COCCN(Cc1nnc(-c2cccs2)o1)C(=O)C1CCN(S(=O)(=O)c2ccccc2)CC1	-0.5	/
O=C(NCCN1CCN(C(=O)c2ccccc2Cl)CC1)C(=O)NCc1ccccc1	/	0.96
O=C(Nc1c2c(nn1-c1ccc([N+](=O)[O-])cc1)CS(=O)(=O)C2)c1ccc(S(=O)(=O)N2CCCCC2)cc1	/	0.12
Cc1cc(C)c(NC(=O)Cn2cnc3ccccc32)c(C)c1	0.25	-0.38
COc1ccc(/C=N/NC(=O)c2ccc3nonc3c2)c(OC)c1	/	0.51
Cc1ccc2nc(NCCO)nc(-c3ccccc3)c2c1	0.1	2
Cn1c(Cc2cccs2)nnc1SCC(=O)N1CCNC1=O	0.15	/
O=C(OCN1C(=O)c2ccccc2C1=O)c1ccc2c(=O)n3c(nc2c1)CCC3	2.3	/
CCOC(=O)C1CCN(c2ncnc3sccc23)CC1	-0.05	/
COC(=O)c1c(-c2ccccc2Cl)noc1C	-0.7	0.015
c1ccc(CNc2ccc(-c3nc4ncccc4o3)cc2)nc1	-0.95	/
CC(C)N=C1SC(CC(=O)Nc2ccccc2)C(=O)N1C(C)C (configuration not stated)	1.5	/
Cn1c(O)c(C=NC2CCCCCC2)c(=O)[nH]c1=S	0.1	0.24
Cc1cccc(-c2nc(CS(=O)CC(=O)NCCc3ccccc3)c(C)o2)c1 (configuration not stated)	0.1	-0.21
CCOC(=O)c1ccccc1NC(=O)c1nc(-c2ccc(C)cc2)n2c1CCCCC2	-0.15	0.58
Cc1nnc(NC(=O)c2sc3ncnc(N4CCOCC4)c3c2C)s1	/	0.16
CCN(CC)C(=O)CSc1nnc(-c2cccnc2)n1-c1ccccc1	1.6	-0.39
C(=C\c1ccccc1)/CN1CCN(C/C=C/c2ccccc2)CC1	0.45	-0.35
COc1ccc(OCNC(=O)Nc2nncs2)cc1	-0.25	/
CCn1c(O)c(N=N)c2ccccc21	-1.2	/
CC(NC1CC2CC=CC21)c1ccc(-n2ccnc2)cc1 (configuration not stated)	0.3	/
COc1ccc(C/C(N)=N/OC(=O)Cc2ccccc2)cc1	-0.4	/
CCOC(=O)C(C#N)C(c1ccc(F)cc1)c1ccco1 (configuration not stated)	-0.05	/
CC(C)OP(=O)(OC(C)C)C(Nc1ccc(Br)cc1)c1ccc(O)cc1 (configuration not stated)	/	0.035
COC(=O)c1sc2ncccc2c1O	-0.4	-1.1
Cc1nc2ccccc2c(=O)n1-c1cccc(O)c1	2.1	/
COc1cccc2cc(C(=O)NCc3cccc(Cl)c3)c(=Nc3ccc(C(=O)O)cc3)oc12	/	-0.85
COc1ccc(N(C(=O)c2ccc(Cl)cc2)C2=CC3CCC(C2)N3C)cc1 (configuration not stated)	/	0.085
CSc1ccccc1NC(=S)NC1CC1	-0.2	/
CCCCn1c(C)c(C(=O)OCC)c2cc(OC(=O)c3cccc4ccccc34)c3ccccc3c21	/	-0.73
CCc1ccc(NC(=O)CSC2=C(C#N)C(c3ccccc3Cl)C(C(=O)OC)C(=O)N2)cc1 (configuration not stated)	/	-0.15
CC(CN1CCCC1)OC(=O)c1ccccc1Br (configuration not stated)	-0.7	-0.77
CN1C(=O)NC(NC(=O)c2ccccc2)(C(F)(F)F)C1=O (configuration not stated)	-0.1	-0.54
Cc1ccccc1-n1c(=S)sc2c1nc(SCc1ccc(Cl)cc1)n1c3ccccc3nc21	/	-0.39
COc1ccc(C(=O)CSc2nc3c(cc2C#N)CCC3)cc1	0.3	-0.09
CCc1ccc(NC2=NCCCS2)cc1	-0.25	/
O=c1cc(N2CCc3ccccc3C2)[nH]c(=O)n1-c1ccccc1Cl	2	-0.23
CCOc1ccc2nc(SCC(=O)N3CCOCC3)sc2c1	0.8	-0.35
COC(=O)c1nnn(-c2nonc2N)c1CSc1nc2ccc([N+](=O)[O-])cc2[nH]1	/	-0.07
CC(=O)Oc1cnc2ccc(C)cc2c1	-0.55	14
O=C(NCc1cccnc1)C1c2ccccc2C(=O)N1Cc1ccco1 (configuration not stated)	1.4	0.03
O=C(O)c1ccc(CNS(=O)(=O)c2cccc3nsnc23)cc1	/	0.04
CCc1ccc(NC(=O)CN(C(=O)N2CCN(CC)CC2)S(=O)(=O)c2ccc(C)cc2)cc1	-0.55	/
CCN1CCN(S(=O)(=O)c2ccc3c4c(cccc24)C(=O)N3CC)CC1	1.4	1
O=C(CSc1nc2sc3c(c2c(=O)[nH]1)CCCC3)Nc1nccs1	-0.15	-0.025
Continuation:
SMILES	AID504770	Ba CapD inh
COCCCNC(=O)CSc1nc2c(sc(=S)n2-c2cc(Cl)ccc2OC)c(=O)[nH]1	/	-0.015
CC1=CC(=O)N(CCC#N)c2ccccc2N1	-0.45	-1.2
Cc1nnc(C)n1/N=C/c1ccc(Cl)c(Cl)c1	-1.4	-0.39
CC(=O)NC(Cc1c[nH]c2ccccc12)C(=O)N1CCC(=O)CC1 (configuration not stated)	-0.3	/
NCCc1ccc2c(c1)OCCO2	-0.55	/
COc1ccc(N2CCN(C(=O)C(C)(C)Cc3cc(C)cc(C)c3C(=O)O)CC2)cc1	/	0.28
COc1ccc(CCNC(=O)CSc2nc3c(cnn3-c3ccc(Cl)cc3)c(=O)[nH]2)cc1OC	-0.55	-0.17
CCOc1cccc(NC(=O)C2CC(=O)N(C)C(=Nc3ccc(Br)cc3)S2)c1 (configuration not stated)	/	0.41
O=C(Nc1c[nH]c(=O)[nH]c1=O)c1cccc(N2C(=O)CCC2=O)c1	-0.05	-0.21
CC(C)OC(=O)COc1ccc2ccc(=O)oc2c1	1.4	/
CN(Cc1cccc(Cl)c1)C1CCN(C(=O)NCc2ccccc2)CC1	-0.9	-0.18
CC1CCN(CC(=O)N2c3ccccc3CCc3ccccc32)CC1	/	-0.015
CC(C)(O)c1nnn(Cc2ccccc2)c1C(C)(C)O	0.25	0.74
CCc1ccc(N(C)S(=O)(=O)c2ccc3[nH]cc(C(=O)N4CCN(c5ccccc5)CC4)c(=O)c3c2)cc1	/	-0.43
CCCCC(=O)Nc1ccc2[nH]c(=O)oc2c1	0.05	-0.045
N#Cc1cn(-c2ccccc2)nc1N	/	-0.47
CC(=O)n1nc(-c2cccnc2)nc1NCc1ccco1	0.2	0.27
O=S(=O)(c1ccc(Sc2nnc(-c3cccs3)n2CC2CCCO2)nc1)N1CCCC1 (configuration not stated)	-0.55	/
Cc1cc(-c2ccccc2)nc(SCc2ccc(Cl)c(Cl)c2)c1C#N	/	-0.89
CC(C)C(=O)Nc1cccc(Cl)c1Cl	0.65	0.1
C=CCn1c(SCC(=O)Nc2ccc(C)cc2)nc2sc3c(c2c1=O)CCCC3	-0.85	-0.3

Screening results deposited in PubChem by ICCB-Longwood Screening Facility, Harvard Medical School.
